Yeast UUG start: alters start codon recognition fidelity in yeast; activity score, % at 18.7 µM; AID 602363; hit rate 0.13% among 350,000; S. cerevisiae UUG-firefly luciferase reporter, luminescence/redox ratio;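 active means replicate mean at a twofold rise or more, about +100% in these data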;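 further: firefly luciferase made from a UUG start codon reports start codon fidelity; reporter light over untreated wells divided by growth signal over untreated wells; some hits fall short of that in this replicate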
PABP FP inh: blocks human PABP binding to poly(A) RNA | P11940 | fluorescence polarization | inhibition, % at 35 µM | hit rate 1% among 290,000 | AID 2014;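 active means 50% or more with normal probe brightness, or confirmed in later tests; about a fifth of its hits are not listed in these tables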;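 further: calls also rest on retests at 20 µM and on dose response follow-up; controls were probe without protein and protein plus probe with vehicle; some compounds called inactive have numbers as strong as hits; many hits fall short of the cut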
Target sequence (P11940 whole entry, looked up): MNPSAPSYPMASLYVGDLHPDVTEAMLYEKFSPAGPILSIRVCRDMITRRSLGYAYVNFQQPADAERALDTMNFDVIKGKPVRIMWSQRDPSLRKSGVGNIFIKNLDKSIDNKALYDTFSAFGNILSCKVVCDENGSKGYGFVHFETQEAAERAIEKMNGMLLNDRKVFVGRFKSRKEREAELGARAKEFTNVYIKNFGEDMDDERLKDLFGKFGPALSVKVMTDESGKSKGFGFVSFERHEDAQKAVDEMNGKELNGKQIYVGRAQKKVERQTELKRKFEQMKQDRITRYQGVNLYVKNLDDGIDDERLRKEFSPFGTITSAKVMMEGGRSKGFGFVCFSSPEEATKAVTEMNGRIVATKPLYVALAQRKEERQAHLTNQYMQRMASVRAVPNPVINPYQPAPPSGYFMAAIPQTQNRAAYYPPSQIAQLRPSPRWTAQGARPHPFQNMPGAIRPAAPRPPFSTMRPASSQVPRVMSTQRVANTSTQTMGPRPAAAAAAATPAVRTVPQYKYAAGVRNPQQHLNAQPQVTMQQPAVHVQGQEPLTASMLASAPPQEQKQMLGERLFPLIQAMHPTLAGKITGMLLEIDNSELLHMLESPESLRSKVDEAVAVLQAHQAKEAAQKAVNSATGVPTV
CSC inhib: cancer stem cell inhibition; cancer stem cell-like cells viability, luminescence; inhibition, % at 7.5 µM; hit rate 1.1% among 300,000; AID 2717;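 active means mean at 75% or more and at least half the replicates too; tested in HMLE shEcad cells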;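 further: 0% = median of negative and 100% = median of positive control wells; the first replicate is given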
eIF4H inh: inhibitors of RNA binding by human eIF4H. Q15056. eIF4H fluorescence polarization binding assay. inhibition, % at 35 µM. hit rate 0.94% among 290,000. AID 2012;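 active means 50% or more with normal probe brightness, or confirmed in later tests; about a fifth of its hits are not listed in these tables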;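 further: calls also rest on retests at 20 µM and on dose response follow-up; 0% = protein and probe with vehicle and 100% = probe without protein; strong numbers were not always called active; many hits fall short of the cut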
MT1-MMP act inh: blocks activation of human MT1-MMP | P50281 | HT1080 RFP-PRO-GFP cells, GFP/RFP ratio fluorescence, overnight; percent of plate control window, DMSO zero | GFP/RFP ratio change, % at 20 µM | hit rate 0.061% among 360,000;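 active means GFP/RFP ratio change of at least 30% with cell ATP level not reduced by more than half and red fluorescence within 50% of control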; further: strong numbers were not always called active
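Assay system: RFP-PRO-GFP reporter HT1080 cells; read-out basis: GFP/RFP fluorescence ratio; benchmarks: DMSO wells and RFP-L50D-GFP cells; doses: 20 µM single dose, 1% DMSO; schedule: overnight cell settling, then overnight compound exposure, 37 °C, 5% CO2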
Rce1 inhib: blocks yeast Ras-converting enzyme | Q03530 | yeast membranes, quenched prenylated peptide cleavage fluorescence | calls only | hit rate 0.27% among 290,000;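 active means fall in fluorescence gain of 50% or more versus controls, with final raw signal at or below 3038400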;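 further: plate controls were neutral control wells for no effect and wells lacking membranes for full effect; tested at 10 µM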
HIV Env fusion: inhibitors of HIV Env-mediated cell fusion. HeLa-JRFL Env/CEM21 cell fusion, luciferase. inhibition, % at 12.3 µM. hit rate 1.1% among 360,000. AID 651610;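 active means mean replicate inhibition score of at least 50 and every replicate individually at or above 50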;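 further: 0% = plate neutral controls and 100% = maraviroc near 300 nM; one replicate is shown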
eIF4H inh retest: second read-out of eIF4H inh, no call of its own (marks repeat the call); inhibition, %; compound at 20 µM; confirmation average;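 mean of two retest wells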
PABP FP inh retest: also measured in PABP FP inh; calls as there; inhibition, %; compound at 20 µM; confirmation repeats;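 mean of two retest wells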
MT1-MMP act inh RFP: recorded beside MT1-MMP act inh, whose call it bears; RFP signal change, %; measured here: RFP expression control read;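 0 = vehicle wells; hits needed this value within 50% of zero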
An asterisk follows results filed as active; i = inactive; nt = no result given; + = active, no number; & = joins results of further samples. An excerpt, so the mix of outcomes need not match the whole.

SMILES	Yeast UUG start	PABP FP inh	CSC inhib	eIF4H inh	MT1-MMP act inh	MT1-MMP act inh RFP	Rce1 inhib	HIV Env fusion	others
CC(C)(C)Cc1nnc(NC(=O)CN2C(=O)c3ccccc3C2=O)s1	nt	0.4	-2.7	-6.6	2.6	7.2	i	10.2
CCc1nccn1CCC(=O)N1CCCC(Nc2ccc(F)cc2)C1 (stereo unspecified)	-4.1	-6.1	49.2	-6.9	-2.8	-2.2	i	0.7
CN(C(=O)Cc1c(C(=O)O)n(C)c2ccccc12)c1ccc(Cl)cc1	-8.9	-2.5	-8.3	-8.0	0.3	1.9	i	8.1
Cc1cccc(-n2cccc2)c1C#N	-8.6	1.1	-0.7	-3.4	4.8	4.9	i	-25.3
CC(NS(=O)(=O)c1ccc2c(c1)C(=O)c1cc(S(=O)(=O)NC(C)C(=O)O)ccc1-2)C(=O)O (stereo unspecified)	nt	30.7	-1.8	0.3	2.1	3.1	i	-14.5
COc1ccc(NC(=O)c2ccc3c(c2)S(=O)(=O)c2ccccc2C3=O)cc1	-13.2	nt	0.4	nt	4.6	1.7	i	2.2
CCCC(=O)Nc1ncnc2c1ncn2[C@@H]1O[C@@H]2COP(=O)(O)O[C@H]2[C@H]1OC(=O)CCC	19.8&-16.5	1.5	-6.0	-7.3	3.2&3.1	2.7&-1.2	i	-5.8&-6.3
COc1ccc(C(=O)NCCS(=O)(=O)N2CCOCC2)cc1	-19.5	nt	6.4	nt	-2.1	-0.9	i	-4.0
CCN(C[C@H]1N[C@@](Cc2ccccc2)(C(=O)OC)[C@H]2C(=O)N(Cc3ccccc3)C(=O)[C@@H]12)S(=O)(=O)c1ccc(C(F)(F)F)cc1	-21.5	nt	nt	nt	-6.4	-6.1	nt	49.3
COc1ccc(CCNC(=O)c2cc(-c3ccc(C)c(C)c3O)n[nH]2)cc1OC	-18.9	6.9	3.1	-4.8	0.6	-13.3	i	nt
COCOCCn1cc(CN2CCS(=O)(=O)N(Cc3ccc(-c4ccc(Cl)nc4)cc3)C(CC(C)C)C2=O)nn1 (stereo unspecified)	13.2	nt	nt	nt	4.7	3.2	nt	-4.6
O=C(CCCN1C(=O)C(=Cc2ccc3c(c2)OCO3)SC1=S)Nc1ccc(C(=O)O)c(O)c1	-1.6	nt	nt	nt	-1.5	4.3	nt	3.4
COC(=O)c1ccccc1NC(=O)C1CC(c2ccc(F)cc2)=NO1 (stereo unspecified)	-13.7	-4.1	-1.0	0.9	-2.1	-0.7	i	nt
COc1cc(OC)cc(C(=O)Nc2ccccc2S(=O)(=O)N2CCCC2OC(C)=O)c1 (stereo unspecified)	-1.2	-0.5	-3.7	-1.0	-4.6	-1.3	i	7.7
Cn1c(=O)c2c(nc(SCc3nc(N)nc(N4CCCCC4)n3)n2C)n(C)c1=O	nt	-0.5	-4.7	-0.3	0.9	2.1	i	34.6
Cn1c(CC(=O)NNC(=O)c2ccc(Cl)nc2)nc2ccccc21	-16.6	nt	-10.9	nt	3.1	2.6	nt	2.3
COC(=O)C1CC(O)CN1S(=O)(=O)c1ccc2ccccc2c1 (stereo unspecified)	-21.9	nt	-17.2	nt	2.4	2.7	nt	nt
C=C(C)CSc1cc(C)c(C#N)c2nc3ccccc3n12	nt	-8.0	nt	4.4	-6.6	-2.0	i	-16.9
CSc1ccc(S(=O)(=O)N(CC(=O)NCc2ccccn2)c2ccc(C)cc2)cc1	-38.0	2.9	-1.6	5.4	-0.4	0.9	i	-8.2
COc1ccccc1C(=O)Nc1ccccc1C(=O)N1CCCC1	3.4	-8.9	-8.5	-9.3	0.9	4.7	i	nt
CCCc1cc(=O)[nH]c2nnc(SCC(=O)Nc3ccc(C(C)=O)cc3)n12	-1.9	nt	-2.7	nt	-1.3	1.8	i	2.2
O=C1Nc2ccccc2N=C(c2ccccc2)C1N(Cc1ccc(F)cc1)C(=O)c1cccnc1 (stereo unspecified)	-1.5	nt	nt	nt	2.5	3.0	nt	42.1
COCCn1nnnc1C(c1ccccn1)N1CCN(c2cc(Cl)ccc2C)CC1 (stereo unspecified)	-13.4	9.3	2.2	-3.0	-8.2	-4.7	i	-7.6
CC(Oc1ccccc1)C(=O)N=C1SC2CS(=O)(=O)CC2N1c1cccc(F)c1 (stereo unspecified)	nt	-0.2	-3.6	-2.0	-0.6	4.5	i	-0.8
COc1ccc(CC(=O)Nc2nnc(C(C)C)s2)cc1	nt	-2.8	nt	-10.1	-0.7	3.8	i	-13.4
COc1ccccc1S(=O)(=O)N1CCN(S(=O)(=O)c2ccccc2C#N)CC1	-16.2	5.7	-2.0	5.1	-6.4	-1.9	i	-15.7
COc1ccc([N+](=O)[O-])cc1NC(=O)CCNC(=O)Cn1ccc2ccccc2c1=O	nt	-5.7	-11.2	-1.5	-2.5	8.9	i	20.9
COc1ccc(C2=NN(CN3C(=O)C(=O)c4ccccc43)C(c3ccc(Br)cc3)C2)cc1 (stereo unspecified)	-10.4	-2.3	17.1	-4.9	-6.5	2.5	i	nt
Cc1ccc(S(=O)(=O)NC2(C(F)(F)F)C(=O)Nc3c2c(=O)n(C)c(=O)n3C)cc1 (stereo unspecified)	-20.9	8.0	3.4	8.0	6.2	4.0	i	nt
CC1(CC(=O)N/N=C/c2ccc(-c3cccc(C(F)(F)F)c3)o2)OCCO1	0.3	2.3	-16.3	9.9	1.4	-2.5	i	nt
COc1ccc(/C=C(/NC(=O)c2ccccc2)C(=O)N2CCCCC2)cc1	-17.8	0.0	5.7	-11.7	-0.7	0.9	i	4.6
Cc1cccc(Cc2cccc(C)c2O)c1O	-10.1	nt	nt	nt	2.0	1.6	nt	-5.2
Cc1cc(=O)[nH]c(SCC(=O)N2C(C)CCCC2C)n1 (stereo unspecified)	-4.2	12.1	-5.0	1.1	3.5	-0.1	i	-12.1
CCCC(C)NC(=O)CSc1nc2ccc(C)cc2[nH]1 (stereo unspecified)	nt	20.0	nt	-2.5	3.1	5.4	i	-24.8
COc1cccc(-c2nc(C#N)c(N3CCN(C(=O)c4ccco4)CC3)o2)c1	-5.9	3.8	-17.0	2.3	-3.7	-1.5	+	6.4
COc1ccc(Cc2noc(COc3ccc(Cl)cc3)n2)cc1	-0.8	0.0	-5.4	6.0	-3.6	-1.0	i	nt
CC1CCN(C(=O)C(NS(=O)(=O)c2cccc3nsnc23)C(C)C)CC1 (stereo unspecified)	-2.2	3.8	3.8	-3.9	-3.7	3.3	i	-1.9
COC(=O)c1cc(=O)n(Cc2ccco2)c(=Nc2ccc(F)cc2)s1	-9.3	4.4	61.8	-4.4	4.9	-7.6	i	nt
Cc1cc2ccccc2c(=O)n1CC(=O)NCc1ccco1	-0.1	-5.6	-14.7	-2.9	1.8	-2.4	i	-13.0
CN(C)C(=O)CCc1ccc2c3c([nH]c2c1)[C@]1(CCc2ccccc2)[C@@H](C(=O)N2CCCCC2)C[C@H](CC(=O)NCCc2ccccn2)C(=O)N1CC3	4.5	nt	nt	nt	-2.8	-0.8	nt	-92.2

In the list so far, 5 contain a Cl atom.
SMILES	Yeast UUG start	PABP FP inh	CSC inhib	eIF4H inh	MT1-MMP act inh	MT1-MMP act inh RFP	Rce1 inhib	HIV Env fusion	others
CN(C(=O)Cc1c(C(=O)O)n(C)c2ccccc12)c1ccc(Cl)cc1	-8.9	-2.5	-8.3	-8.0	0.3	1.9	i	8.1
COCOCCn1cc(CN2CCS(=O)(=O)N(Cc3ccc(-c4ccc(Cl)nc4)cc3)C(CC(C)C)C2=O)nn1 (stereo unspecified)	13.2	nt	nt	nt	4.7	3.2	nt	-4.6
Cn1c(CC(=O)NNC(=O)c2ccc(Cl)nc2)nc2ccccc21	-16.6	nt	-10.9	nt	3.1	2.6	nt	2.3
COCCn1nnnc1C(c1ccccn1)N1CCN(c2cc(Cl)ccc2C)CC1 (stereo unspecified)	-13.4	9.3	2.2	-3.0	-8.2	-4.7	i	-7.6
COc1ccc(Cc2noc(COc3ccc(Cl)cc3)n2)cc1	-0.8	0.0	-5.4	6.0	-3.6	-1.0	i	nt

The main list resumes, repeating the 2 entries before the break.
SMILES	Yeast UUG start	PABP FP inh	CSC inhib	eIF4H inh	MT1-MMP act inh	MT1-MMP act inh RFP	Rce1 inhib	HIV Env fusion	others
Cc1cc2ccccc2c(=O)n1CC(=O)NCc1ccco1	-0.1	-5.6	-14.7	-2.9	1.8	-2.4	i	-13.0
CN(C)C(=O)CCc1ccc2c3c([nH]c2c1)[C@]1(CCc2ccccc2)[C@@H](C(=O)N2CCCCC2)C[C@H](CC(=O)NCCc2ccccn2)C(=O)N1CC3	4.5	nt	nt	nt	-2.8	-0.8	nt	-92.2
COc1ccccc1S(=O)(=O)Cc1ccc(C(=O)NC2CCCCC2)o1	-10.2	2.5	-37.2	-1.1	-0.7	4.3	i	-16.9
CC1=C(C(=O)NCc2ccccc2)C(c2cccs2)NC(=S)N1 (stereo unspecified)	-27.6	-6.7	-11.0	2.3	0.3	1.2	i	11.2
Cc1cc(=O)oc2cc(NS(=O)(=O)c3ccccc3)ccc12	12.1	25.7	25.3	-2.6	1.3	-5.0	i	-11.0
CS(=O)(=O)N(CC(=O)N1CCCCCC1)c1cc(Cl)ccc1Cl	4.7	-5.2	-6.8	5.5	8.1	3.5	i	4.7
COc1ccc(CCn2nc(C)c([N+](=O)[O-])c2C)cc1	7.0	1.2	5.2	-5.3	-1.3	3.5	i	-61.6
Cc1ccsc1-c1n[nH]c(=S)n1C1CCCCC1	nt	17.6	-15.0	-6.0	2.5	-0.7	i	-14.9
CC1(C)CC(=O)C(CC2C(=O)CC(C)(C)CC2=O)C(=O)C1	nt	-10.4	0.6	5.4	-0.3	0.0	i	-66.8
CCCCOc1ccccc1Cn1c(=O)oc2ccc(C)cc21	-3.4	-10.9	14.7	-9.0	-3.7	-2.6	i	-17.7
COc1ccc(Cl)cc1NC(=O)CN(C)CC(=O)NCc1ccc(F)cc1	-13.4	nt	-3.8	nt	3.3	5.0	nt	27.4
Cc1ccc(C2CC(c3ccccc3)=NN2C(=S)Nc2ccccc2)o1 (stereo unspecified)	-29.8	23.3	14.6	7.5	-5.2	-10.0	i	nt
CN(C)c1cccc(C(=O)NCCCn2ccc3ccccc32)c1	-21.2	-5.7	5.4	-4.2	1.3	0.8	i	-25.0
Cc1ccc2c(c1)N(C(=O)CCC(=O)NCCCN1CCOCC1)CC(C)O2 (stereo unspecified)	-7.2	-4.2	-9.8	7.8	-1.8	4.5	i	nt
COC(=O)c1ccc(C23CC4(C2)[C@H](CN(Cc2ccc(C(F)(F)F)cc2)[C@@H]4c2ccccc2)C3c2ccc(C(F)(F)F)cc2)cc1 (stereo partly specified)	nt	4.2	nt	-11.3	nt	nt	i	nt
CCOC(=O)c1cc(-c2ccccc2)nc2nc(N3CCCCC3)sc12	nt	5.0	2.8	-4.4	-8.0	-15.8	i	-11.6
CCOC(=O)N1CCC(NC(=O)c2cc(-c3ccc(F)cc3)[nH]c2C)CC1	-3.0	0.7	4.5	-2.6	4.9	5.4	i	9.5
CC(OC(=O)c1cccc(-n2cnnn2)c1)C(=O)Nc1ccc(N(C)C)cc1 (stereo unspecified)	0.7	nt	-7.6	nt	11.2	-1.9	i	-19.1
CC(C)(C)c1ccc(C(=O)Nc2c3c(nn2C(C)(C)C)CS(=O)(=O)C3)cc1	2.5	9.1	-4.1	-19.3	0.5	0.0	i	-15.8
COc1cc2nc(CN3CCN(C(C)=O)CC3)[nH]c(=O)c2cc1OC	nt	90.6	11.1	-7.9	-0.1	3.2	i	-6.8	eIF4H inh retest=-3.5;PABP FP inh retest=5.0
CN(CC(=O)Nc1cccc(F)c1)C(=O)CN1c2cccc3cccc(c23)S1(=O)=O	1.5	nt	-7.3	nt	5.0	2.7	nt	nt
Cc1ccc(S(=O)(=O)N2CCN(C(=O)Cn3nc(C(=O)O)c4ccccc4c3=O)CC2)cc1	nt	-2.8	-5.7	6.0	nt	nt	i	9.1
